# gsp antag = antagonists of gsp mutant (McCune-Albright syndrome); AID 624288; 340,000 compounds, 0.4% hits; gsp-mutant cells, cAMP HTRF, 30 min; control for the full effect not named in the record; Potency, µM (highest dose often 76.9 µM), without a hit: at the highest dose activity change, negative = inhibition, most hits filed as inhibitors; active = falling curve of any shape with a large fitted effect; inconclusive = falling curve, mostly with a smaller effect; inactive = flat or rising curve; cell line not stated here;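 also: intracellular cAMP measured with PDE inhibitor Ro 20-1724 present during compound exposure; potency is read from the fitted curve at half-maximal effect; % is scaled to controls: 0 for no effect and ±100 for the full control effect; nearly all actives have a fitted effect of over 65% in size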
#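 Cells, 2000/well, grown 16–24 h in DMEM 10% FBS with 0.5 mg/ml G418, then compounds plus […] (300 uM addition stock), 30 min at 37C. cAMP read by HTRF (cAMP-d2 and anti-cAMP antibody-K in lysis buffer) after 30 min RT.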
# Menin MLL FP FL = displaces fluorescein MLL peptide from human menin | FP activity change, % at 61.4 µM | AID 1766 | 290,000 tested, under 10 active | Fluorescence polarization, fluorescein-MLL peptide displacement from menin; inconclusive = falling polarisation curve, or a change in total fluorescence; inactive = total fluorescence flat and polarisation flat or rising; no compound was filed as active; the % refers to the polarisation; negative = inhibition;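 also: % of control where 0% means no effect; inhibitors lower the polarisation; unlabelled MLL peptide was the positive control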
# TRPV1 potentiator = human TRPV1 potentiation | Q8NER1 | TRPV1-expressing cells, Fluo-8 calcium influx, capsaicin EC20 potentiation; host cell line not named in the record; control for the full effect not named in the record | potentiation, % at 8.33 µM | 320,000 compounds, 0.02% hits; active means potentiation above 80%; inconclusive means 30% to 80%; inactive means below 30%; also: 0% is about no effect
# Target sequence (Q8NER1 whole entry, looked up): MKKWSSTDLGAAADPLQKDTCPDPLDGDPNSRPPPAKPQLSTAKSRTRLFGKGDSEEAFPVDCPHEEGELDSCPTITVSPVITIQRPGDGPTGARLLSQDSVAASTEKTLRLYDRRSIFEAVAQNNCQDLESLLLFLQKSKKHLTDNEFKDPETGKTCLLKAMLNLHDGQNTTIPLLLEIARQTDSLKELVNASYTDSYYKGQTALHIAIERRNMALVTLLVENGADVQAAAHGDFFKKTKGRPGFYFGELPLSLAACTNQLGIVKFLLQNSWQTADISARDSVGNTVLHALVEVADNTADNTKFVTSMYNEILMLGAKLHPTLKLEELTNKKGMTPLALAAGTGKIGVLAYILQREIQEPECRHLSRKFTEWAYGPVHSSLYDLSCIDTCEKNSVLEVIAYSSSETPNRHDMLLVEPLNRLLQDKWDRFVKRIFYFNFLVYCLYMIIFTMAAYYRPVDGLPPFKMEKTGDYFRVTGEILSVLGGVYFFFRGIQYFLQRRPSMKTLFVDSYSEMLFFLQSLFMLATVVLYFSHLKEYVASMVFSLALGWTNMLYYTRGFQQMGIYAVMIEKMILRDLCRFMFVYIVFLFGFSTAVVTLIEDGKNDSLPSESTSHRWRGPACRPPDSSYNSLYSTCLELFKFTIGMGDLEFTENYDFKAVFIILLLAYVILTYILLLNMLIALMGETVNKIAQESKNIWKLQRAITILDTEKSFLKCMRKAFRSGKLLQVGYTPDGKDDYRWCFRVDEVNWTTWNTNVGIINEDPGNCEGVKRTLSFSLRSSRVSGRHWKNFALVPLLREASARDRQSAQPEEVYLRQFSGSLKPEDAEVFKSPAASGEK
#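 TRPV1-expressing cells were cultured overnight at 35.5C and loaded with Fluo-8 calcium dye for 40 to 90 min at room temperature. After a 10 s baseline, compound was added and calcium influx was read kinetically for 3 min (ex 480/em 520 nm).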
# ClpP mod = qHTS Assay for Activators of ClpP; purified B. subtilis ClpP, FRET peptide cleavage, 20 min; Potency, µM (titrated, usually from 57.5 µM), inactives show top-dose activity change, negative = active; 340,000 compounds, 1.9% hits; AID 651965, 2013; active = well fitted falling curve with a large enough effect; inconclusive = small, poorly fitted or top-dose-only effect; inactive = no such curve, though single readings can be large or run the other way; also: potency is read from the fitted curve at half-maximal effect; the source files actives as falling curves though it sought activators and does not explain the sign; nearly all actives have a fitted effect of over 65% in size; many hits overshoot -100%
# Target sequence (P80244 whole entry, looked up): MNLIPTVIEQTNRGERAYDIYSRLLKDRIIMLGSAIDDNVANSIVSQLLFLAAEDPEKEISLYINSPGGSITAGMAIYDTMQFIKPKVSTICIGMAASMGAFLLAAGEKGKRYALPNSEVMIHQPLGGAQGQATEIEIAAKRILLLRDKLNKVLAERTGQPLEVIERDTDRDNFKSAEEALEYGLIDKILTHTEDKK
#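 Buffer: 100 mM Tris/HCl pH8, 100 mM KCl, 0.05% low protease BSA, 2.5% glycerol, 0.01% Tween-20. ClpP 10 microg/mL final; 20 min RT; delta FRET normalized to ADEP and DMSO controls.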
# gsp ag = gsp mutant agonism; Potency, µM (titrated, usually from 76.9 µM), without a hit: at the top dose activation (cAMP increase), hits mostly activators; 340,000 compounds, 0.13% hits; gsp mutant cells, cAMP HTRF, 30 min; control for the full effect not named in the record; active = well fitted activation curve with a large enough effect; inconclusive = small, poorly fitted or top-dose-only effect, or another doubt; inactive = no such curve, though single readings can be large or run the other way; cell line not stated here;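 also: phosphodiesterase inhibitor Ro 20-1724 added with compounds to block cAMP breakdown; potency is read from the fitted curve at half-maximal effect; nearly all actives have a fitted effect of over 60% in size; about a fifth of the inactives were tested at one dose only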
#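 Cells stably selected in G418 were plated at 2000/well, grown 16-24 hr, then given compounds in DMSO with the PDE inhibitor […] (300 uM solution added) for 30 min at 37C; cAMP was read by HTRF.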
# D2 potentiator = positive allosteric modulators of human D2 dopamine receptor; DiscoveRx D2 beta-arrestin cells, luminescence, 90 min; 100% = 57 uM dopamine signal; potentiation, % (concentration not given with the values); P14416; 360,000 compounds, 0.23% hits; active = potentiation of 50% or more; inconclusive = 30% to 50%; inactive = 30% or less;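 also: tested on top of an EC20 dose of dopamine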
#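 PathHunter beta-arrestin assay in DiscoveRx D2 cells. Compounds were added with an EC20 of dopamine (50 nM final) for 90 min at 37 deg C. Luminescence was read 1 h after detection reagent, with 57 uM dopamine as the EC100 control.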
# Sfp PPTase inh = Sfp phosphopantetheinyl transferase inhibition. 310,000 compounds, 3.5% hits. Q9F4F7. AID 1490. Potency, µM, inactives show max response, negative = inhibition, most hits filed as inhibitors. Biochemical Sfp PPTase activity, qHTS; active = well fitted inhibition curve with a large enough effect; inconclusive = small, poorly fitted or top-dose-only effect, or another doubt; inactive = no such curve, though single readings can be large or run the other way;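 also: the enzyme is Sfp with the accession as filed and its product quenches rhodamine fluorescence; potency is read from the fitted curve at half-maximal effect; 0% = enzyme reaction without inhibitor and -100% = no enzyme wells; top concentration of the series not given in the record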
#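 With Hepes-Na pH 7.6 buffer containing 10 mM MgCl2, Sfp (15 nM) modified BHQ-2-YbbR (12.5 uM) using rhodamine-CoA (5 uM). Two reads 30 minutes apart at 525/598 nm yielded each well's rate.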
# * marks the source's active call; other numbers are inactive results; ? = inconclusive; nt = no result given; [ ] = dose if it differs, or a comment.
SMILES,gsp antag,Menin MLL FP FL,TRPV1 potentiator,ClpP mod,gsp ag,D2 potentiator,Sfp PPTase inh
CC(=O)c1ccc(NS(=O)(=O)c2ccc3c(c2)CCC(=O)N3)cc1,21%,nt,-17,-21%,-14%,-4,nt
Cc1cc(C)n2nc3nc(N4CCCC4)nc(-c4ccccc4)c3c2n1,-22%,-1.1,4,-9.7%,5%,-2,16%
CCN(CC(=O)Nc1ccc(NC(C)=O)cc1)C(=O)c1cc(C)on1,-1%,nt,6,-3.7%,6%,-8,nt
CN(CCc1ccccc1)C(=O)c1ccc(NC(=O)Cc2ccc(NC(=O)C3CCN(S(=O)(=O)c4cccc([N+](=O)[O-])c4)CC3)cc2)cc1,7%,nt,nt,-0.5%,nt,-1,nt
COc1ccc(NC(=O)CSc2ccc3nnc(-c4ccccn4)n3n2)cc1OC,2%,-0.2,0,0.5%,?,-5,6%
CC1(C)CC(=O)C2=C(C1)c1c(ccc3ccccc13)NC2c1ccc(OCC(=O)O)cc1 (stereo unspecified),?,-4.9,-18,4.0%,-36%[inhibitor],?,-2%
O=C(NCCCN1CCOCC1)c1cc2ccccc2o1,1%,5.5,-17,-2.0%,-2%,-1,12%
CC1CCC2(CC1)NC(=O)N(CC(=O)NC(C)c1ccc(F)c(F)c1)C2=O (stereo unspecified),-2%,nt,-5,-2.9%,0%,-5,nt
O=C(Nc1ccccc1)NC1CCN(Cc2nnnn2C2CCCCC2)CC1,-1%,1.1,-2,-1.0%,-40%[inhibitor],-6,-9%
Cc1ccc(S(=O)(=O)NCC(=O)OCCOc2ccccc2F)cc1,-31%,nt,nt,1.1%,-5%,0,nt
Cc1ccc(NC(=O)CN(C)S(=O)(=O)c2cccc3nsnc23)cc1C,-27%,0.9,-1,2.6%,-5%,-19,-10%
Cc1ccccc1N1CCN(c2ccccc2NC(=O)/C=C\C(=O)O)CC1,-21%,nt,nt,-1.1%,4%,0,nt
CCCCCn1c(=O)[nH]c2cc(C(=O)NCCCN3CCCCC3)ccc2c1=O,5%,-3.4,-9,28µM*,15%,-10,-10%
Cc1cc(N2C(=O)C(O)=C(C(=O)c3ccco3)C2c2cccnc2)no1 (stereo unspecified),nt,0.6,-12,nt,nt,nt,18%
COc1cccc(Nc2nnc(Cc3cccnc3)c3ccccc23)c1,-16%,1.8,-10,-2.7%,-4%,-11,8%
CS(=O)(=O)N(Cc1cccc(CN(C(C(=O)O)c2ccccc2)S(C)(=O)=O)c1)C(C(=O)O)c1ccccc1 (stereo unspecified),5%,-0.9,7,0.1%,27%,-9,?
O=C1CCCC(O)=C1N=Nc1cccc(S(=O)(=O)N2CCOCC2)c1,-3%,0.1,-33,nt,9%[15.4 µM],-8,-17%
Cc1ccc(-c2cn(-c3ccccc3F)c(=S)[nH]2)cc1,2%,0.3,0,-7.9%,23%,-10,1%
Cc1ccccc1CSc1nnc(-c2cccnc2)n1N,0%[15.4 µM],6.9,9,-2.0%,-2%,-7,9%
O=C(Nc1ccc(Cl)c(Cl)c1)Nc1ccccn1,8%,-3.4,7,-0.6%,11%,0,6%

# A second format for two compounds above.
Structure	gsp antag	Menin MLL FP FL	TRPV1 potentiator	ClpP mod	gsp ag	D2 potentiator	Sfp PPTase inh
CC1(C)CC(=O)C2=C(C1)c1c(ccc3ccccc13)NC2c1ccc(OCC(=O)O)cc1 (stereo unspecified)	?	-4.9	-18	4.0%	-36%[inhibitor]	?	-2%
CC(=O)c1ccc(NS(=O)(=O)c2ccc3c(c2)CCC(=O)N3)cc1	21%	nt	-17	-21%	-14%	-4	nt

# Remaining list, next part
SMILES,gsp antag,Menin MLL FP FL,TRPV1 potentiator,ClpP mod,gsp ag,D2 potentiator,Sfp PPTase inh
Cc1cc2c(cc1S(=O)(=O)NCCc1ccc(Cl)cc1)OCC(=O)N2,0%,3.3,-9,1.0%,-24%,-4,2%
O=C(Nc1nc2ccc(S(=O)(=O)N3CCCC3)cc2s1)C1CCCO1 (stereo unspecified),-8%,0.3,-4,-2.7%,-1%,-3,4%
CCc1ccc(CNCCNC(=O)c2ccco2)cc1,-29%,nt,nt,nt,11%[15.4 µM],-5,nt
O=C(NC(=S)Nc1ccccn1)c1cccc([N+](=O)[O-])c1,3%,1.9,nt,nt,?,-9,18%
COc1ccc(N2C(=O)CC2(/C=C/c2ccccc2OC)C(=O)NC2CCCC2)cc1 (stereo unspecified),-17%,3.7,-8,-0.3%,7%,-4,2%
COc1cc(C2=NOC(C(=O)Nc3ccc4c(c3)OCO4)C2)cc(OC)c1OC (stereo unspecified),-5%,5.3,7,-0.2%,21%,5,-3%
COC(=O)c1cn(-c2nc(C)c3c(n2)CCC3)nn1,26%,-3.7,-6,nt,6%[15.4 µM],2,7%
CC(Nc1nc(N2CCN(CCO)CC2)nc2ccccc12)c1ccccc1 (stereo unspecified),-7%,-7.2,-8,3.0%,0%[15.4 µM],4,16%
COCCCNCCOCCOc1ccc(C)cc1[N+](=O)[O-],13%,-2.2,5,4.1%,-47%[inhibitor],-11,-17%
Cn1c(=O)n(CCN2CCOCC2)c(=O)c2c1nc1n2CCCN1c1ccccc1,nt,-1.6,-8,nt,nt,nt,8%
CN(Cc1ccccc1)C(=O)COC(=O)c1cc(=O)[nH]c2ccccc12,35%,nt,nt,?,-19%,-8,nt
COc1ccc(NS(=O)(=O)c2cccc(C(=O)N/N=C(\C)c3ccncc3)c2)cc1,2%,6.4,2,-1.0%,15%[15.4 µM],-6,1%
CC1CC(=O)C2=C(C1)Nc1ccccc1N=C2 (stereo unspecified),13%,-1.0,-4,-5.0%,2%,-9,19%
Cc1ccc(C(=O)NCc2ccco2)cc1[N+](=O)[O-],10%,0.7,-9,-0.7%,-4%,3,-2%
C[N+]1(CC(=O)OCCCC2CCCCC2)CCCC1,-7%,0.1,3,nt,0%[15.4 µM],-2,-2%
CCOC(=O)Cc1nnc2c(Nc3ccccc3F)nc3nonc3n12,-14%,34[activator],-2,0.8%,?,-22,17%
Cc1ccc(N2CCN(C(=S)Nc3ccccc3C)CC2)cc1,13%,4.2,20,1.3%,-2%,0,15%
O=C1C=CC(O)C2(CO)OC12 (stereo unspecified),nt,nt,nt,-0.8%,-10%,-18,nt
Cc1cc2c(=O)n(C)c(SCC(=O)Nc3ccc(F)cc3)nc2s1,-3%,nt,nt,nt,-1%[15.4 µM],0,nt
COc1ccccc1NCCC(=O)OCC(=O)NC1CCCC(C)C1C (stereo unspecified),4%,nt,12,-0.3%,?,-3,-1%
CN1CCN(S(=O)(=O)c2cccc(C(=O)Nc3cc(C(F)(F)F)ccc3N3CCCCC3)c2)CC1,4%,nt,-3,-14%,-29%,-1,nt
COc1ccc(NC(=O)c2ccc3nc[nH]c3c2)cc1,7%,6.0,2,-3.1%,?,-8,11%
COn1c(-c2ccc(C)cc2)nc2ncccc21,2%,0.4,2,nt,9%,4,5%
COc1ccc(Oc2c(C)oc3cc(OC(=O)N4CCOCC4)ccc3c2=O)cc1,-18%,2.0,15,-1.7%,?,-6,15%
COc1ccc(CCNC(=O)C(=O)NCC2OCCN2S(=O)(=O)c2cccs2)cc1 (stereo unspecified),3%,1.2,5,0.7%,-10%,-3,1%
CSc1ccccc1NC(=O)c1ccc(N2CCCC2=O)cc1,1%,nt,-1,-1.0%,-29%,-2,nt
N#Cc1cc([N+](=O)[O-])cnc1N(CCO)CCO,7%,0.9,-5,-1.8%,-10%,-12,12%
COC(=O)N(C)C[C@H]1OCc2cnnn2CCCC(=O)N([C@H](C)CO)C[C@H]1C,nt,nt,nt,1.0%,?,3,nt
CCOc1ccc(NC(=O)CN(C)C(=O)c2cc(C)nc3ccccc23)cc1OCC,3%,nt,7,-5.1%,0%,-14,nt
C/C(=N\Nc1ccc(Cl)c(C(=O)O)c1)c1cc2ccccc2o1,-14%,2.0,10,-0.1%,-5%[15.4 µM],-2,-14%
CC1=C(C(=O)Nc2ccccc2C(=O)NCCCOC(C)C)SCCO1,11%,4.9,-1,-3.3%,16%,-15,8%
COc1ccc(C(=O)Oc2ccc(/C=N/NC(=O)c3ccccc3OC)cc2[N+](=O)[O-])cc1,-1%,1.2,6,28µM*,-55%[inhibitor],13,8%
COc1ccc(Cl)cc1-n1c(N)c(C(N)=O)sc1=S,-3%,-6.5,3,1.9%,-10%,-10,16µM*
CCOCC(=O)Nc1nnc(C2CCCCC2)s1,2%,-1.1,-4,-2.4%,-5%,-2,-27%
Cc1ccc(C(=O)N2CCN(c3ccccn3)CC2)cc1,-2%,0.2,-5,-18%,-49%[inhibitor],0,12%
O=C(COc1ncnc2ccccc12)NCCc1ccccc1,6%,-0.9,-23,nt,4%[15.4 µM],-4,9%
COCCCNC(=O)c1cc(C(=O)c2ccccc2Br)c[nH]1,7%,-4.6,11,nt,-19%[15.4 µM],-25,21%
COC(=O)C1=C(NC(=O)c2cccc(OC)c2)CCS1,-9%,1.7,-6,2.7%,-47%[inhibitor],6,-1%
COc1cc(Cl)ccc1OCc1cc(C(=O)N2CCN(c3ccccn3)CC2)no1,?,-0.4,15,-1.2%,-14%,-2,2%
Brc1ccc(-c2nc(-c3ccccn3)no2)o1,4%,-1.4,3,-13%,10%,5,6%
COCCn1c(SC(C)C(=O)Nc2ccc(N3CCOCC3)cc2)nnc1-c1ccncc1 (stereo unspecified),-7%,nt,10,-3.2%,2%,-11,nt
COc1ccc2c(c1OC)C(=O)N1C2SC[C@H]1C(=O)NC1CC(C)(C)NC(C)(C)C1 (stereo partly specified),7%,4.3,19,?,10%,-6,5%
O=C(c1ccccc1)N1CCN(c2ccc(N3CCOCC3)nn2)CC1,-4%,nt,-17,?,-4%,-18,nt
CCn1ncc(Br)c1C(=O)Nc1ccccc1C(F)(F)F,-3%,-3.8,12,1.8%,-1%,-4,10%
O=C(COC(=O)Cc1ccccc1[N+](=O)[O-])NCc1ccccc1Cl,9%,3.0,-28,nt,3%[15.4 µM],-6,8%
COC(=O)/C=C/C(=O)NCc1ccco1,5%,2.4,2,1.8%,5%,-4,6%
CC(=O)N1CCN(C(=S)c2ccc([N+](=O)[O-])cc2)CC1,-1%,1.4,12,-1.0%,-3%,1,-10%
NNC(=O)C1CC(O)CN1S(=O)(=O)c1ccc(Cl)cc1 (stereo unspecified),3%,-3.5,12,1.0%,-9%[15.4 µM],-8,15%

# Screening results: PubChem BioAssay, National Center for Advancing Translational Sciences (NCATS)
